TRPML1 agonist = qHTS for Agonists of the Human Mucolipin Transient Receptor Potential 1 (TRPML1); TRPML1-expressing cells, Ca2+ dye fluorescence, FDSS; host cell line not named in the record; reference of the full effect not given here; activation, % (no concentration beside the values); 410,000 compounds, 0.12% hits; Mucolipin-1 (Homo sapiens), Q9GZU1; in the data active = activation above about 50%; inconclusive = about 30% to 50%; inactive = below about 30%; further: 0% is about no effect; the text of the record puts the active cut at 80%
Target sequence (Q9GZU1 whole entry, looked up): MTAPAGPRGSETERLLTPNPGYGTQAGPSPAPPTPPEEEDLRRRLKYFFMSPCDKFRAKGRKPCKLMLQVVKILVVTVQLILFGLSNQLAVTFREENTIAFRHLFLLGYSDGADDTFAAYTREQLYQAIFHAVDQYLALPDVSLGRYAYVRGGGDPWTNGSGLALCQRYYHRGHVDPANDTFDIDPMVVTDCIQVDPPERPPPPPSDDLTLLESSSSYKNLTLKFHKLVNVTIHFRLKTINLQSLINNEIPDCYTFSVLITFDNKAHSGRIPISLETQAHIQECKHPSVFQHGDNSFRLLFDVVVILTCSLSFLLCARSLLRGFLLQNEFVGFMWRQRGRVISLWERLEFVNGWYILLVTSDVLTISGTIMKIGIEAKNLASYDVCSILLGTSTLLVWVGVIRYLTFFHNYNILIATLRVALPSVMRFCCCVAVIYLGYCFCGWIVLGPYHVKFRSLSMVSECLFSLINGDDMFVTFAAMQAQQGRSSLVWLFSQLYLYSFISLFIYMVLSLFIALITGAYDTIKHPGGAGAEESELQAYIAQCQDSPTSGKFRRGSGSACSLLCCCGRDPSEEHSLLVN
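Tet-induced TRPML1-DL cells, 1,500 per well, cultured overnight, were loaded with a no-wash Ca2+ dye for 45–90 min. Calcium fluorescence was recorded on the FDSS for 110 s after compound addition, before the EC80 agonist (4 uM 54-4) was added.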
TRPML1 blocker = qHTS for Inhibitors of the Human Mucolipin Transient Receptor Potential 1 (TRPML1); 390,000 compounds, 0.02% hits; TRPML1-inducible cells, Ca2+ dye fluorescence, FDSS; active compounds read low; inhibition of EC80 agonist-evoked calcium signal; Mucolipin-1 (Homo sapiens), Q9GZU1; AID 624415, 2012; activity change, negative = inhibition, % (test concentration not listed); in the data active means activity change below about -50%; inconclusive means about -30% to -50%; inactive means above about -30%;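 further: stimulus is agonist 54-4 at its EC80 concentration; on the % scale 0 is the no-effect control and ±100 the full control effect; compound concentration not given in the record; the text of the record puts the active cut at -80%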
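Calcium fluorescence in TRPML1-DL cells induced overnight with Tet: a 110 s read after compound pin addition, then a 110 s antagonist read after challenge with 54-4 at 4 uM final (EC80).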
ClpP mod = qHTS Assay for Activators of ClpP; ATP-dependent Clp protease proteolytic subunit (Bacillus subtilis (strain 168)), P80244; purified B. subtilis ClpP, FRET peptide cleavage, 20 min; Potency, µM (titrated, usually from 57.5 µM), without a hit: top-dose activity change, negative = active; 340,000 compounds, 1.9% hits; AID 651965, 2013; active = well fitted falling curve with a large enough effect; inconclusive = small, poorly fitted or top-dose-only effect; inactive = no such curve, though single readings can be large or run the other way; further: potency means the concentration at half of the fitted maximal effect; the source files actives as falling curves though it sought activators and does not explain the sign; nearly all actives have a fitted effect of over 65% in size; many hits overshoot -100%
Target sequence (P80244 whole entry, looked up): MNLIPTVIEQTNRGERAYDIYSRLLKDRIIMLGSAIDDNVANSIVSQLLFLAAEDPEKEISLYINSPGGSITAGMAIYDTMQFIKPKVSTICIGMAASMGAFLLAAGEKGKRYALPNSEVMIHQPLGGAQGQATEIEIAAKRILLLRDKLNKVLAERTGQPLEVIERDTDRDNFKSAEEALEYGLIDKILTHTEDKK
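ClpP 10 microg/mL final, pH 8 Tris/KCl buffer with BSA, glycerol, Tween-20; compound pinned in; FRET-FV substrate; RT 20 min; Ex320/Em430; ΔFRET vs ADEP 5.8 microM, DMSO, no enzyme.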
Menin-MLL FL inh = qHTS Assay for Inhibitors Targeting the Menin-MLL Interaction in MLL Related Leukemias: Competition With Fluorescein Labeled MLL-derived Peptide; Fluorescence polarization, fluorescein-MLL peptide displacement from menin; FP activity change, % at 61.4 µM; 290,000 tested, under 10 active; AID 1766, 2009; inconclusive = falling polarisation curve, or a change in total fluorescence; inactive = total fluorescence flat and polarisation flat or rising; no compound was filed as active; the % refers to the polarisation; negative = inhibition;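 further: % of control where 0% means no effect; inhibitors lower the polarisation; unlabelled MLL peptide was the positive control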
gsp ag = qHTS for Agonist of gsp, the Etiologic Mutation Responsible for Fibrous Dysplasia/McCune-Albright Syndrome: qHTS | gsp mutant cells, cAMP HTRF, 30 min; control for the full effect not named in the record | Potency, µM (titrated, usually from 76.9 µM), for the others: at the highest dose activation (cAMP increase), usual class: activators | 340,000 compounds, 0.13% hits | AID 624287, 2012; active = well fitted activation curve with a large enough effect; inconclusive = small, poorly fitted or top-dose-only effect, or another doubt; inactive = no such curve, though single readings can be large or run the other way; cell line not stated here;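 further: phosphodiesterase inhibitor Ro 20-1724 added with compounds to block cAMP breakdown; potency means the concentration at half of the fitted maximal effect; nearly all actives have a fitted effect of over 60% in size; about a fifth of the inactives were tested at one dose only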
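Cells stably selected in G418 were plated at 2000/well, grown 16-24 hr, then given compounds in DMSO with the PDE inhibitor […] (300 uM solution added) for 30 min at 37C; cAMP was read by HTRF.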
gsp antagonist = qHTS for Antagonists of gsp, the Etiologic Mutation Responsible for Fibrous Dysplasia/McCune-Albright Syndrome: qHTS. gsp-mutant cells, cAMP HTRF, 30 min; control for the full effect not named in the record. Potency, µM (doses to about 76.9 µM), for inactives: at the highest dose activity change, negative = inhibition, hits mostly inhibitors. 340,000 compounds, 0.4% hits; active = falling curve of any shape with a large fitted effect; inconclusive = falling curve, mostly with a smaller effect; inactive = flat or rising curve; cell line not stated here;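 further: intracellular cAMP measured with PDE inhibitor Ro 20-1724 present during compound exposure; potency means the concentration at half of the fitted maximal effect; on the % scale 0 is the no-effect control and ±100 the full control effect; nearly all actives have a fitted effect of over 65% in size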
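G418-selected cells were plated in DMEM/10% FBS for 16-24 h at 37C, then treated with compounds plus the PDE inhibitor […] (300 uM solution added) for 30 min at 37C. Intracellular cAMP was measured by HTRF after 30 min lysis at room temperature.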
Starred values were filed as active, the others as inactive; ? = inconclusive; . = no result given; & = joins results of further samples; [ ] = remark or other dose. Only part of the results is shown; rates above refer to the full screens.

SMILES	TRPML1 agonist	TRPML1 blocker	ClpP mod	Menin-MLL FL inh	gsp ag	gsp antagonist
C[C@@H]1CN([C@H](C)CO)C(=O)CCCn2nncc2CO[C@@H]1CN(C)C(=O)Oc1ccc2ccccc2c1	-0.1	16	-2.4%	.	?	.
Cc1cc(C=C(C#N)C#N)ccc1N1CCCC1	19	5	.	?	2%[15.4 µM]	-19%
O=c1[nH]c(=O)n(CCC2=CCCCC2)c(O)c1C=NCCCn1ccnc1	-0.1	11	2.2%	15	11%	12%
CCC(=O)CC(c1ccccc1)c1c(O)c2ccccc2sc1=O (configuration not stated)	1.0	-5	3.1%	2.2	?	12%
Cc1ccc(OCCn2cccc2/C=C2/C(=O)NC(=O)N(Cc3ccco3)C2=O)cc1	2.7	-13	.	?	?	-13%
Cc1cc(/C=C2\C(=O)NC(=O)N(c3ccc(Cl)cc3)C2=O)c(C)n1C	0.7	32	7.3%	?	28%	-3%
CC(C)(C)NC(=O)NC(=O)COC(=O)CNS(=O)(=O)c1ccc(Br)cc1Cl	0.3	-1	0.5%	-0.7	-67%[inhibitor]	-21%
CNc1cc(N2CCN(C)CC2)ccc1[N+](=O)[O-]	0.2	-2	-0.9%	-0.1	-23%	7%
OC(COCc1ccc(Cl)cc1)CN1CC=C(c2ccccc2)CC1 (configuration not stated)	1.1&0.7	-2&-13	-11%	1.6	9%&-11%	-1%&-5%
Cc1ccc(C2=NCC(=O)N(CC(=O)N3CCCCC3)c3sc(C)c(C)c32)cc1	0.3	-1	1.4%	0.0	?	-16%
CC(C)(C)c1cc(C=C(C#N)C#N)cc(C(C)(C)C)c1O	2.1	-9	1.7%	?	.	?
COC(=O)C1=C(c2ccc(Cl)c(C(F)(F)F)c2)C[C@@H]2CC[C@H]1N2C(=O)NC1CC1	-0.2	-27	-1.2%	.	2%	-5%
C[N+]1(C)CCc2cc3c(cc2[C@H]1[C@@H]1OC(=O)c2c1ccc1c2OCO1)OCO3	-0.5&0.2	-3&-12	-0.5%&-4.1%	-17&0.5	.	-1%&-3%
Cc1cccc(C)c1-n1nnnc1C(c1ccccc1OC(F)(F)F)N1CCC(n2c(=O)[nH]c3ccccc32)CC1 (configuration not stated)	3.1	-13	2.6%	.	.	.
OCC12COC3c4ccccc4C(OC1)N32 (configuration not stated)	-0.4	-2	-1.0%	2.7	-53%[inhibitor]	4%
CC(C)(C)C(O)C(Oc1ccc(Cl)cc1)n1cncn1 (configuration not stated)	-0.7	11	-2.3%	-2.8	.	-2%
CN1CCN(/N=C/c2c(O)n(CCC3=CCCCC3)c(=S)[nH]c2=O)CC1	0.6	10	-0.7%	13	4%[15.4 µM]	-5%
CN1CCC(=O)N(CCN=[N+]=[N-])CC1	-0.1&0.4	4	-0.5%&-0.1%	7.5	15%	12%
COCCOC(=O)c1c(N)n(Cc2ccc(OC)cc2)c2nc3ccccc3nc12	-0.9	-3	25%	0.9	6%	-12%
CCCc1[nH]nc2c1C(c1ccc(OC)c(Cn3nnc4ccccc43)c1)C(C#N)=C(N)O2 (configuration not stated)	-0.1	7	-2.7%	3.9	-22%	-12%

2 of the compounds above, with two lines to a compound.
Value order – TRPML1 agonist, TRPML1 blocker, ClpP mod, Menin-MLL FL inh, gsp ag, gsp antagonist
Cc1cc(C=C(C#N)C#N)ccc1N1CCCC1
    19, 5, ., ?, 2%[15.4 µM], -19%
O=c1[nH]c(=O)n(CCC2=CCCCC2)c(O)c1C=NCCCn1ccnc1
    -0.1, 11, 2.2%, 15, 11%, 12%

Going on with the list.
SMILES	TRPML1 agonist	TRPML1 blocker	ClpP mod	Menin-MLL FL inh	gsp ag	gsp antagonist
C[C@]12CC[C@H]3[C@@H](CCC4=CC(=O)CC[C@@H]43)[C@@H]1CC[C@@H]2O	-0.3	1	1.5%	3.2	.	-4%
COCCN1C(=O)NC(=O)/C(=C\c2ccc(Br)cc2)C1=O	0.1	-5	0.3%	-4.1	22%	1%
C[C@]12CCC(=O)C(O)=C1CC[C@@H]1[C@@H]2CC[C@]2(C)C(=O)CC[C@@H]12	-0.6	1	0.9%	-1.6	.	-14%
Cc1cc(OCC(=O)NCC(O)c2ccccc2)c2c3c(c(=O)oc2c1)CCC3 (configuration not stated)	-1.2	13	4.0%	.	-2%	-22%
CCCCOC(=O)C1=C(N)OC2=C(C(=O)CCC2)[C@]12C(=O)N(C)c1ccccc12	-0.2	-3	-1.3%	4.3	-13%	-7%[15.4 µM]
O=CC(Cl)P(=O)(N1CCCCC1)N1CCCCC1 (configuration not stated)	-0.1	-7	1.1%	1.9	18%	0%
CC/C(=N\NC(=O)c1ccccc1Cl)c1c(O)n(C2CCCCC2)c(=O)[nH]c1=O	2.2	-1	-1.0%	.	-14%	2%
CCN1c2nc3c(C)cccn3c(=O)c2CC2(C(=O)N(C)C(=O)N(C)C2=O)C1C (configuration not stated)	-0.3	-3	3.5%	4.0	-11%	9%
c1ccc(C2c3ccccc3-n3nncc3CN2CC2CCCCC2)cc1 (configuration not stated)	2.6	4	-5.4%	.	.	-13%
C=CCn1c(O)c(C(C)=Nc2ccc(N(CC)CC)cc2)c(=O)[nH]c1=O	0.8	26	-0.3%	3.3	9%	1%
COc1cccc(CC(=O)N(C)C2CCCN(Cc3ccccc3F)C2)c1 (configuration not stated)	0.3	-15	?	1.2	-2%[15.4 µM]	9%
CC12CN3CCN(C1)CC(C)(C3)C2=NO	1.0	1	-1.3%	-3.1	-29%	10%
CC(C)=CCC/C(C)=C/CN(CC(C)O)CC(C)O (configuration not stated)	0.4	24	-1.1%	-0.2	14%	-1%
CCN(CC)C(=O)c1ccc(NC(=O)CCn2nc(-c3ccc(C)cc3)c3ccccc3c2=O)cc1	1.2	-11	-4.1%	.	.	.
COc1cc2c(cc1OC)CN(c1ccc([N+](=O)[O-])c(C(F)(F)F)c1)CC2	0.6	-4	-2.1%	1.0	-30%[inhibitor]	-18%
Brc1ccc(C2N3CCCN23)cc1 (configuration not stated)	0.7	4	-0.5%	1.2	9%	2%
Cc1ccc(N(C)C(=O)Oc2cccc3ccc(C)nc23)cc1	1.7	21	0.1%	0.1	0%	6%
CCOc1cccc(N2C(=O)/C(=C/c3ccco3)C(=O)NC2=S)c1	-0.3	32	-0.8%	?	-41%[inhibitor]	0%
COc1ccc(Br)cc1CNCCc1cccc(Cl)c1	-0.6	3	-0.1%	0.6	1%	9%
CCN(CC)c1ccc(C=C2C(=O)NC(=S)NC2=O)cc1	1.3	5	1.3%	?	-85%[inhibitor]	-25%
COC(=O)C1=C(c2ccc(-c3ccccc3)c(F)c2)C[C@@H]2CC[C@H]1N2C(=O)NCCCOC(C)C	2.2	-16	0.8%	.	-39%[inhibitor]	28%
CC1NCCC2(O)CCCCC12 (configuration not stated)	0.2	?	-4.6%	-3.1	-26%	7%
COc1ccc(/C=C/C(=O)c2c(O)n(CCC3=CCCCC3)c(=O)[nH]c2=O)cc1	2.2	-1	-4.6%	3.7	-30%	7%
Cc1ccc(C)c(-n2c(C)nc3ccccc3c2=O)c1	-0.4	18	-0.8%	-0.3	-8%	-3%
Cc1ccc(-n2c(O)c(C=NCCCn3ccnc3)c(=O)[nH]c2=O)cc1	1.1	-5	.	11	5%	0%
CCOC(=O)C(O)(c1ccc(N(CC)C(=O)OC)cc1)C(F)(F)F (configuration not stated)	-0.4	6	-1.1%	1.3	-1%	-4%
CN1CC[C@@]2(C)c3cc(O)ccc3N(C)C12 (some centres not stated)	-0.9	.	-2.6%	-4.3	.	.
C=CCn1c(O)c(C(=O)CCCCCC)c(=O)[nH]c1=O	0.7	-8	-2.7%	2.3	-1%	-2%
CC(C)CN(C(=O)CN1CC=C(c2ccccc2)CC1)c1c(N)n(CC(C)C)c(=O)[nH]c1=O	2.1	-25	.	6.4	27%	1%
O=c1[nH]c(O)c(C=Nc2ccc(Cl)c(C(F)(F)F)c2)c(=O)[nH]1	-0.2	2	1.0%	0.7	-4%[15.4 µM]	-2%
O=C(Cn1c(=O)n(CC2CS2)c2ccccc21)N1CCCCCC1 (configuration not stated)	0.4	11	.	-1.5	8%[15.4 µM]	18%
c1ccc(N2C3C4CC(C5CCCC54)C32)cc1 (configuration not stated)	-0.3	21	.	.	27%	5%
CC(Cc1cccs1)NCc1ccccc1 (configuration not stated)	-0.3	-28	-1.1%	-2.4	24%[15.4 µM]	-8%
Cc1cccc(NP(=O)(Oc2ccccc2F)Oc2ccccc2F)c1	3.9	-3	-1.5%	4.7	13%	-13%
Cc1cccc(-n2c(-c3ccco3)nc3ccccc3c2=O)n1	-0.4	-10	2.4%	1.6	-1%	-3%
CN(C)CP(=O)(O)CN(C)C=O	-0.6	13	3.9%	2.2	-14%	11%
COc1ccc(CCn2c(O)c(/C=N/NC(=O)c3ccncc3)c(=O)[nH]c2=O)cc1OC	1.7	2	-6.7%	3.8	-1%	-1%
Cc1cc(/C=C2\C(=O)NC(=O)N(c3ccc(Cl)cc3)C2=O)c(C)n1-c1sc2c(c1C#N)CCCC2	0.6	10	4.0%	?	18%	1%
CC[C@@H](CO)NC(=O)[C@@H]1C=C2c3cccc4[nH]cc(c34)C[C@H]2N(C)C1	1.5	9	4.1%	?	.	-9%
Cc1ccc2c(c1)C(=O)CC1(CCC(C(C)(C)C)CC1)O2 (configuration not stated)	-0.1	-16	?	0.0	?	5%
CCC(C)n1c(O)c(C=NCCc2ccccc2)c(=O)[nH]c1=S (configuration not stated)	1.4	-3	2.6%	0.9	13%	0%
COc1ccc(Cc2c(O)[nH]c(=S)[nH]c2=O)cc1	1.0	-7	.	-2.8	10%	3%
O=C1NC(=O)C(=Cc2cccc(OCCOc3ccccc3)c2)C(=O)N1	3.2	3	-4.6%	-11	?	-2%
COc1ccc(OCC(=O)N2CCN(CC3CC4C=CC3C4)CC2)cc1 (configuration not stated)	-0.1	1	-1.1%	-4.2	?	-5%
C[C@]12CCC3C(CC[C@H]4C[C@@H](O)CC[C@]34C)[C@H]1C=CC2=O (some centres not stated)	-0.1	2	-1.2%	.	-11%[15.4 µM]	-11%
O=c1c2ccc(Cl)cc2[nH]c(=S)n1-c1cccnc1	-0.1	-21	-0.6%	1.6	-4%[15.4 µM]	5%
CC12CC(c3ccccc3O1)C(C(=O)OCc1ccccc1)C(=O)N2 (configuration not stated)	3.8	4	2.7%	-5.6	5%	-9%
